High-throughput results from PubChem.
Hsc70: Hsc70 inhibitors, probe displacement, primary screen, biochemical, fluorescence polarization (AID 568). Hsc70 fluorescence polarization, probe displacement; higher % means a stronger effect; strong numbers were not always called active. one-dose displacement, % at 20 µM; IC50 in µM for titrated hits. 83,000 tested, under 10 active;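 active = displacement above 50% without optical interference and an IC50 on retest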;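 also: ATPase domain with a fluorescein-tagged ATP probe; 0% = vehicle and 100% = excess ADP; read after one hour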
WNV NS2B-NS3 inh: WNV NS2B-NS3 proteinase inhibition; P06935; actives 0.18% (n = 65,000); WNV NS2B-NS3 protease, fluorogenic substrate Ex360/Em465; hits give low values; z-score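 (tested at a level between 10 and 100 µM)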; AID 577;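 active = z-score at -3 or under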;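 also: score is relative to mean and spread of the compound wells of a plate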
Target sequence (P06935 1371-1501 limits assumed): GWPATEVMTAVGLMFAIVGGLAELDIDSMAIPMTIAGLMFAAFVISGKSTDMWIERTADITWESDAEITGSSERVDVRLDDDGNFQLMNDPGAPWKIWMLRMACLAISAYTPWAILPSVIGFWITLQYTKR
Target sequence (P06935 1502-1679 limits assumed): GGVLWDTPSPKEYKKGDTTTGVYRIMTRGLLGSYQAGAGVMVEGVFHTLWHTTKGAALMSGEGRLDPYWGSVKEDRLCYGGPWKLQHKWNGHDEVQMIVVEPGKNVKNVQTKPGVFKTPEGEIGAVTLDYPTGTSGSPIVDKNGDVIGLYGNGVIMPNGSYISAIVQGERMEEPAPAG
MT1-MMP reporter: MT1-MMP gene expression reporter suppression – cell-based, luciferase reporter, luminescence (AID 618) | MT1-MMP promoter luciferase reporter cells, luminescence | actives 0.62% (n = 87,000) | calls from a first round at 10 µM; hits with a dose series show EC50 in µM;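 active = over half of the reporter light lost at 10 µM or EC50 under 50 µM; inactive = the rest and hits that failed the dose series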;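 also: actives suppress MT1-MMP promoter-driven transcription so potencies describe inhibitors; HT1080 fibrosarcoma cells; overnight exposure; toxic or luciferase-blocking compounds were not removed from the actives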
Starred values were filed as active, the others as inactive; i = inactive; x = no result given. Not all compounds are listed. The share of hits here may be higher or lower than overall.

SMILES | Hsc70 | WNV NS2B-NS3 inh | MT1-MMP reporter
O=C(CN1C(=O)c2ccccc2S1(=O)=O)Nc1ccccc1C(=O)NCc1ccco1 | -4.6% | -0.48 | i
Cc1ccc(C(=O)O)cc1NC(=O)c1cccs1 | 0.2% | x | i
O=c1nc2n(c3cc(Cl)c(S(=O)(=O)N4CCOCC4)cc13)CCCCC2 | 3.5% | -0.73 | i
CC(C)C(=O)Nc1ccc(C(=O)NC2CCSC2=O)cc1 (stereo unspecified) | -9.6% | -0.94 | i
CC1CCN(C(=O)CSc2nnc(Cc3cc(=O)[nH]c(=O)[nH]3)n2-c2ccc(Cl)cc2)CC1 | 6.4% | 0.06 | i
COC(=O)N(C)c1nc2ccccc2s1 | -10.4% | 0.91 | i
O=C(Nc1ccc(-n2nncc2-c2ccco2)cc1)c1cc2ccccc2oc1=O | -21.5% | -1.5 | i
Cc1ccc2c(c1)-c1ccccc1S(=O)(=O)N2 | 1.9% | 0.13 | i
Cc1ccc(C)c(N2CCN(C(=O)c3cc4ccccc4oc3=O)CC2)c1 | -1.6% | 0.49 | i
O=C(CN1C(=O)COc2ccccc21)N(Cc1cccnc1)Cc1cccc(F)c1 | 1.0% | -0.25 | i
COc1ccc(CC(=O)Nc2ccc(S(=O)(=O)NCC3CCCO3)cc2)cc1 (stereo unspecified) | -0.1% | -0.92 | i
CN(Cc1ccccc1)C(=O)COC(=O)c1ccc2c(c1)OCO2 | -0.9% | -0.06 | i
COc1ccc(OC)c(-n2c(SCC(=O)N3CCc4ccccc43)nc3c(c2=O)SCC3)c1 | 1.0% | -0.19 | i
CN1C(=O)CSc2ccc(C(=O)O)cc21 | -5.1% | -1.67 | i
CC(=O)Cc1nsc(NC(=O)c2ccccc2)n1 | -2.2% | 0.42 | i
CCOC(=O)c1ccccc1NC(=O)c1c(F)c(F)c(F)c(F)c1F | 0.1% | 0.31 | i
CC(=O)NC1(c2ccccc2)CCN(c2nc(C)cc(C)n2)CC1 | -7.9% | 0.06 | i
O=C(Nc1ccccc1C(=O)N1CCCCCC1)c1cccc(S(=O)(=O)N2CCOCC2)c1 | 0.7% | -1.33 | i
O=C(CC1Oc2ccc(Cl)cc2NC1=O)NC1CCCCCC1 (stereo unspecified) | 3.5% | -0.44 | i
CC1CCCN(c2nc3ccccc3nc2C(C#N)S(=O)(=O)c2cccs2)C1 (stereo unspecified) | 12.2% | x | i
CC1(C)N(OCc2ccccc2)C(=O)C(=O)N(OCc2ccccc2)C1(C)C | -1.7% | x | i
CCOC(=O)CCc1c(C)nc2cc(-c3ccc(Cl)cc3)[nH]n2c1=O | 5.0% | 0.54 | i
Cc1ccc(S(=O)(=O)N2CCN(C)CC2)cc1-c1nnc2c3ccccc3c(C)nn12 | -2.7% | 0.55 | i
COc1ccc(NC(=O)c2cccnc2Cl)c(S(=O)(=O)N2CCOCC2)c1 | -2.7% | x | i
COc1ccc(-c2nnc3ccc(SCC(=O)N4CCN(c5ccccc5)CC4)nn23)cc1 | -2.0% | -1.83 | i
c1ccc(SSc2ccccc2)cc1 | -1.9% | -0.93 | i
COC(=O)c1ccccc1NC(=O)CN1CCN(C(=O)c2ccco2)CC1 | -2.7% | 0.58 | i
COc1ccc(S(=O)(=O)N2CCN(C(=O)c3ccco3)CC2)cc1OC | -1.2% | x | i
COc1ccccc1N1CCN(S(C)(=O)=O)CC1 | 7.6% | x | i
CCOC(=O)c1oc2cccc(OC(C)=O)c2c1C | 2.7% | 0.29 | i
CCN1CCN(c2cc(C)c3cc(NC(=O)Cc4ccc(OC)c(OC)c4)ccc3n2)CC1 | -4.8% | 0.46 | i
O=C(C1CCC1)N1CCc2cc(S(=O)(=O)NCc3cccnc3)ccc21 | 3.1% | 0.71 | i
CCOC(=O)N1CCN(CC(=O)N2c3ccccc3CC2C)CC1 (stereo unspecified) | -2.8% | -0.79 | i
O=C(c1ccco1)N1CCN(C(=O)c2ccc(COc3ccc4c(c3)CCC4)o2)CC1 | -3.0% | x | i
Cc1cc(C)c(Cc2c(C)nc3c(C(=O)NCc4ccco4)cnn3c2C)c(C)c1 | 1.1% | x | i
O=S(=O)(c1ccc(Cl)c(C(F)(F)F)c1)N1CCN(CC(O)COCC2CCCO2)CC1 (stereo unspecified) | -4.5% | 0.42 | i
CCNC(=O)COc1ccc2ccccc2c1 | -4.6% | 0.38 | i
CCOC(=O)c1cccc(NC(=O)C2CCC(CNc3c(N4CCOCC4)c(=O)c3=O)CC2)c1 (stereo unspecified) | 0.1% | 1.62 | i
CC(=O)C1=C(C)NC(SCC(=O)c2ccc(Cl)cc2Cl)=C(C#N)C1c1ccco1 (stereo unspecified) | -27.0% | -0.96 | i
S=c1nc(-c2cccc(Br)c2)[nH][nH]1 | -1.6% | 0.34 | i
CC1CCN(C(=O)CSc2ccc(-c3ccc(F)cc3)nn2)CC1 | -8.8% | 0.46 | i
CCOC(=O)C1=C(C)NC(C)=C(C(=O)OCC)C1c1ccc(OC)cc1 | -6.6% | -0.71 | i
COc1cccc(-c2nc(=S)c3c(n2Cc2ccco2)CCCC3)c1 | -1.9% | -1.58 | i
CC(C(=O)NCC1(c2ccccc2)CCCC1)N1CCOCC1 (stereo unspecified) | 2.1% | -0.75 | i
Cc1ccc(-c2nnc(CSc3nc(C)nc4sc(C)c(C)c34)o2)cc1 | -0.8% | -0.49 | i
CCCn1c(C(O)c2cc(OC)ccc2OC)nc2ccccc21 (stereo unspecified) | -1.6% | -0.62 | i
CN(c1cccc(NC(=O)Nc2cccc(Cl)c2)c1)S(C)(=O)=O | 4.1% | -0.88 | i
O=C(NCCN1CCOCC1)NC1(C(F)(F)F)Oc2ccc(Cl)cc2O1 (stereo unspecified) | 0.9% | -0.73 | i
O=C(Nc1ccc(-c2noc(CCc3ccccc3)n2)cc1)c1cccnc1 | 0.2% | -0.85 | i
O=C(CCCCn1c(=O)c2ccccc2n(Cc2ccc(F)cc2)c1=O)NCc1ccco1 | -1.5% | 0.84 | i
CCOc1ccccc1N1C(=O)CC(Nc2ccc(N3CCOCC3)cc2)C1=O (stereo unspecified) | 1.0% | -1.31 | i
COC(=O)CSc1nnc(CNc2ccc(Cl)cc2)n1Cc1ccccc1 | -4.1% | 0.86 | i
Cc1ccc(C(=O)Nc2cnc3ccccn3c2=O)cc1 | -0.7% | x | i
CCCc1nnc(SCc2ccc(OCC)cc2)n1N | -2.7% | 0.5 | i
COc1cccc(NC2CC(=O)N(CCc3ccccc3)C2=O)c1 (stereo unspecified) | 8.5% | -0.76 | i
O=C(c1sccc1-n1cccc1)N1CCCC1 | 0.9% | -1.32 | i
O=C(C(F)C(F)(F)F)N1CCN(c2ccccc2)CC1 (stereo unspecified) | 5.0% | -0.33 | i
Cc1noc(C)c1S(=O)(=O)N(CC(=O)N1CCCCCC1)c1ccc(C(C)C)cc1 | 5.2% | -1.35 | i
c1ccc(C(c2nnnn2C2CCCCC2)N2CCc3ccccc3C2)nc1 (stereo unspecified) | 1.9% | 0.82 | i
CC(C)(CO)Nc1nc(N2CCCC2)nc(N2CCCC2)n1 | -3.3% | x | i

Additional structures follow.
SMILES | Hsc70 | WNV NS2B-NS3 inh | MT1-MMP reporter
CCOC(=O)CC(=O)c1cc(OC)c(OC)c(OC)c1 | -3.0% | -0.96 | i
O=C(OCC(=O)N1CCOCC1)c1ccc2c(c1)OCCO2 | -3.1% | 0.67 | i
CCOc1ccc(-n2c(SCC(=O)Nc3ccc(OC)cc3)nc3c(c2=O)SCC3)cc1 | 1.4% | 1.22 | i
O=C(Cn1ncc2c(=O)oc3ccccc3c21)NCCN1CCN(c2ccccc2F)CC1 | -1.4% | -0.64 | i
C=CCNC(=O)CN(c1ccc(F)c(Cl)c1)S(C)(=O)=O | 9.7% | 0.97 | i
COC(=O)C1C(=O)c2c([nH]c(C(=O)OC3CCCCCC3)c2C)CC1C (stereo unspecified) | -1.3% | 2.85 | i
OC(CN1CCN(Cc2ccc3c(c2)OCO3)CC1)c1c[nH]c2ccccc12 (stereo unspecified) | 0.3% | x | i
COc1ccccc1N1CCN(C(c2cc3cc(C)ccc3[nH]c2=O)c2nnnn2C2CCCC2)CC1 (stereo unspecified) | -0.7% | -1.28 | i
O=C(NCc1ccco1)c1ccccc1F | -1.5% | x | i
CC1(C)CC2CC(C)(CN2C(=O)Cc2ccccc2)C1 (stereo unspecified) | -1.4% | x | i
Cc1ccc(N=CC2=C(O)CC(C)(C)CC2=O)nc1 | 6.0% | x | i
COCCn1nnnc1C(c1cc2ccc(OC)cc2[nH]c1=O)N1CCN(C2CCCCC2)CC1 (stereo unspecified) | 6.0% | 1.15 | i
CCN(CC)S(=O)(=O)c1cccc(C(=O)N[C@H](C(=O)OCC(N)=O)C(C)C)c1 | -1.4% | x | i
COc1ccc(NC(=O)CSc2nc(O)cc(=O)n2C)cc1 | 6.8% | x | i
COc1ccccc1-c1c(NC(=O)c2ccco2)n(-c2ccccc2)nc(C)c1=O | 0.4% | 0.02 | i
O=C(O)CSc1nnc(-c2ccncc2)n1-c1ccc(Cl)cc1 | 8.1% | x | i
CC(C)(C)c1ccc(C(=O)N2CCNCC2)cc1 | -0.5% | x | i
Cn1c(=O)c2nc(NCc3ccccc3)cnc2n(C)c1=O | 28.0% | 0.16 | i
COC(=O)CNC(=O)c1cn(CC(C)C)c(=O)c2cc(OC)c(OC)cc12 | -1.0% | -0.86 | i
CCOC(=O)N1CCC(NC(=O)COc2cc(=O)n(C)c3ccccc23)CC1 | 3.9% | -0.07 | i
CSc1nc(-c2ccco2)nn1C(=O)c1ccco1 | 1.0% | -2.4 | i
Cc1cc(NCCCN2CCOCC2)n2ncc(-c3ccc(Cl)cc3)c2n1 | -1.1% | -0.38 | i
CC1CCN(c2nnc(N3CCC(C)CC3)c3ccccc23)CC1 | -3.1% | 0.09 | i
O=C(CCN1CCCCCC1)Nc1ccc(F)c(F)c1 | 7.2% | -0.18 | i
CSc1nc(C)cc(OCC(=O)N2CCOCC2)n1 | -2.1% | -0.05 | i
c1ccc2[nH]c(CN3CCCCC3)nc2c1 | -1.2% | x | i
COc1ccc(CSc2nncn2N)cc1Br | 3.9% | -0.91 | i
CCc1nnc(NC(=O)CCC(=O)N2CCN(Cc3cc(F)ccc3OC)CC2)s1 | 4.1% | -0.89 | i
CCCCOCCCNC(=O)c1ccc(NC(C)=O)cc1 | 0.5% | 0.67 | i
CCOC(=O)C1CCN(C(=O)CCNC(=O)Cn2ccc3ccccc3c2=O)CC1 | -9.5% | 2.95 | i
Cc1ccnc(SCCn2c(N3CCCCC3)nc3c2c(=O)[nH]c(=O)n3C)n1 | -4.7% | -0.75 | i
COc1ccc(-c2nc(CSCC(=O)N3CCN(C(=O)c4ccco4)CC3)c(C)o2)cc1OC | 5.6% | 0.86 | i
Cc1c(C(=O)NCCCN2CCCC2=O)oc2ccccc12 | 2.2% | -0.63 | i
O=C(c1cc(-c2cccs2)nc2ccccc12)N1CCN(S(=O)(=O)c2cccc(F)c2)CC1 | -0.3% | x | i
CN=C1c2ccccc2CN1c1cccc(C(=O)OC)c1 | -4.3% | 0.4 | i
CCC(CC)C(=O)NCCc1ccc(OC)cc1 | -3.2% | x | i
COc1ccc(S(=O)(=O)N2CCCC2C(=O)Nc2nnc(-c3cccnc3)s2)cc1 (stereo unspecified) | -4.3% | -2.02 | i
Cn1cnnc1SCC(=O)Nc1ccccc1C(=O)NC1CC1 | -1.1% | x | i
Cc1ccn2c(-c3csc(NCc4ccco4)n3)c(C)nc2c1 | 2.2% | -1 | i
CCN1CCN(Cc2nc3c(c(=O)n(C)c(=O)n3C)n2Cc2ccccc2Cl)CC1 | 7.9% | 0.08 | i
OCCCc1nc2n(n1)C(c1ccccc1Cl)C=C(c1cccs1)N2 (stereo unspecified) | 14.1% | -0.89 | i
CCc1nnc(NC(=O)CSc2nnc(-c3ccccc3O)n2CC)s1 | -0.7% | x | i
CCOC(=O)c1cc2nc(Nc3ccc(OC)cc3)sc2s1 | -36.5% | -0.13 | i
Cc1ccc2c(c1)NC(=O)C(CC(=O)NCCCN1CCN(c3cc(C)ccc3C)CC1)O2 (stereo unspecified) | 1.6% | -0.55 | i
COc1ccccc1CN(Cc1ccco1)S(=O)(=O)c1ccc(-n2cnnn2)c(OC)c1 | -1.6% | -0.3 | i
